N370S GC: inhibits or activates N370S mutant glucocerebrosidase; AID 2101; hit rate 0.092% among 330,000; N370S GC spleen homogenate, 4MU-glucoside fluorescence; P04062; Potency, µM (doses to about 59.4 µM), for inactives: at the highest dose activity change, negative = inhibition, usual class: inhibitors;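 note: 0% = full enzyme activity and -100% = no enzyme basal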
FEN1 inhibitor: blocks human flap endonuclease 1. Recombinant FEN1 flap cleavage, fluorescence, 15 min. hit rate 0.35% among 390,000. P39748. Potency, µM (titrated, usually from 114 µM), without a hit: at the top dose activity change, negative = inhibition, usual class: inhibitors; note: nearly all actives have a fitted effect of over 65% in size
Target sequence (P39748 whole entry, looked up): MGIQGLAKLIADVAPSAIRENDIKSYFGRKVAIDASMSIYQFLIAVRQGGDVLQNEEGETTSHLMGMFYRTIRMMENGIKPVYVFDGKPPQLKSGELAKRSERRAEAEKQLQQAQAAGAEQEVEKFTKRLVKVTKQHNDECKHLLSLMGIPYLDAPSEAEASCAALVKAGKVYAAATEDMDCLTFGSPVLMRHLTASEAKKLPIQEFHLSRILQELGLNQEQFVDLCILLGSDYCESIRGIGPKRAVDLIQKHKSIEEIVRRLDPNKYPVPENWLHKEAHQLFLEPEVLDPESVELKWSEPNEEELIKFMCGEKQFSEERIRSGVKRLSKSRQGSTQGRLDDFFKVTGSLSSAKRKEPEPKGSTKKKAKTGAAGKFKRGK
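Read-out was taken twice, immediately and after 15 min, following addition of 50 nM substrate to 10 nM FEN1 that had sat with test compound for 15 min at room temperature. Curves came from a four-parameter Hill model.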
* = called active by the depositor; u = inconclusive; x = not tested or not shown; & = joins results of further samples; [ ] = another dose, or the depositor's remark. Calls come from the whole dose curve; as a rule, active = well fitted curve in the direction sought with a large enough effect; inconclusive = small, poorly fitted or top-dose-only effect, or another doubt; inactive = no such curve, though single readings can be large; an effect the other way counts as inactive or inconclusive. Unless noted, % is set by controls: 0 for no effect and ±100 for the full control effect; potency is the fitted concentration of half-maximal effect. A portion of the library; most or all hits stand in other tables.

Order of values: N370S GC | FEN1 inhibitor
O=C(COc1ccccc1[N+](=O)[O-])N1CCN(S(=O)(=O)c2ccccc2)CC1
 : -0.9% | -0.1%
COc1cccc(NC(=O)COC(=O)c2ccc3ccccc3n2)c1
 : x | 1.2%
CCOc1cc(C(=O)Nc2ccc(S(=O)(=O)NC3=NCCCCC3)cc2)cc(Br)c1OC
 : -0.7% | -7.4%
O=C(NCc1ccc(F)cc1)c1ccc(CS(=O)Cc2ccc(Cl)cc2)o1 (configuration not stated)
 : x | 13.4%
COc1cc(S(=O)(=O)N2CCCCC2)c(OC)cc1Br
 : 17.5% | -20.3%
OC1CCN(C(=S)NCCc2ccccc2)CC1
 : x | -10.6%
O=c1[nH]c2ccc(Cl)cc2c(-c2ccccc2)c1SC(=S)N1CCCCC1
 : -4.6% | -13.2%
COc1cccc(OC)c1C(=O)Nc1cccc(S(=O)(=O)Nc2ccccc2Cl)c1
 : x | -18.1%
O=C(O)c1cccnc1SCc1cn2cc(Br)ccc2n1
 : 13.0% | -5.3%
COC(=O)c1sc2nc(SCc3ccccc3C#N)n(N)c(=O)c2c1C
 : u | -5.8%
CCN(c1ccccc1)S(=O)(=O)c1nnc(NC(=O)c2cccs2)s1
 : x | -2.7%
COC(=O)c1sc(-c2ccccc2)cc1NC(=O)c1cccc(F)c1
 : x | 0.9%
COc1ccc(NC(=O)CCc2nnc3ccc(NCc4ccco4)nn23)cc1OC
 : -0.5% | 1.5%
Cn1cccc1CC(=O)N/N=C\c1ccccc1
 : 3.1% | 5.3%
CC1CCc2c(nc3sc4c(c3c2N)CCCC4)C1 (configuration not stated)
 : 3.4% | -1.7%
COC(=O)c1cc(OC)c(OC)cc1NC(=S)N1CCN(Cc2ccccc2)CC1
 : -2.3% | 1.4%
Clc1ncn(CCOc2ccccc2)c1Cl
 : 8.8% | 5.1%
COc1ccc(C)cc1S(=O)(=O)NNc1nc(C)cc(C)n1
 : x | -17.3%
CCCCn1c(N)c(N(C(=O)CSc2nnnn2-c2ccccc2C)C2CCCC2)c(=O)[nH]c1=O
 : -8.6% | -8.8%
Cc1ccc(Cn2ccsc2=NC(=O)COC(=O)c2ccc(O)cc2O)cc1
 : -8.2% | -14.1%
O=C(O)c1cccc2c1C(=O)c1cc(Br)ccc1S2(=O)=O
 : x | -1.8%
FC(F)(F)c1nnc2ccc(N3CCCCCC3)nn12
 : u | -2.9%
COc1ccc(C2Nc3ccccc3C(=O)N2c2ccccc2)cc1COc1ccccn1 (configuration not stated)
 : 17.7% | -3.0%
C[C@@]12CCC(=O)C=C1CC[C@H]1[C@H]3CC[C@](O)(C(=O)CO)[C@]3(C)CC(=O)[C@@H]12
 : 2.6%[21.6 µM] | x
CCCCCCOc1ccc(C(CC(=O)O)C(N)=O)cc1 (configuration not stated)
 : 4.0% | 0.3%
O=c1[nH]cnc2c1nc(Cl)n2C1OC(CO)C(O)C1O (configuration not stated)
 : -4.3% | x
Cc1ccc(S(=O)(=O)N[C@@H](C)C(=O)N2CCC(C(=O)N3CCC[C@H]3C(=O)O)CC2)cc1
 : -2.5%&0.4% | 1.7%
COCCN1C(=O)c2ccccc2C(C(=O)NCCN(C)C)C1c1ccc(F)cc1 (configuration not stated)
 : -1.1% | -5.8%
Cc1ccc(Nc2n[nH]c(C)c2[N+](=O)[O-])cc1
 : 1.0% | 5.6%
CC(=O)Nc1ccc(NS(=O)(=O)c2c(C)nc3sccn3c2=O)cc1
 : x | 14.6%
O=C(O)c1[nH]c2ccc(Br)cc2c1CCN1C(=O)c2cccc([N+](=O)[O-])c2C1=O
 : 0.6% | -4.9%
CO[C@]1(NC(=O)CSCC#N)C(=O)N2C(C(=O)O)=C(CSc3nnnn3C)CS[C@H]21
 : -0.9%[21.6 µM] | x
CCOC(=O)C1=C(O)C(=O)N(c2ccc(S(N)(=O)=O)cc2)C1c1ccccc1 (configuration not stated)
 : 3.1% | 4.7%
Nc1nnc(SCC(=O)Nc2cccc3ccccc23)s1
 : 4.0% | -1.0%
Nc1cc(=O)n(Cc2ccccc2)c(=O)n1-c1ccc(Cl)cc1
 : 0.5% | -9.8%
O=C(NNC(=O)c1ccc(SCC2CCCO2)c([N+](=O)[O-])c1)c1ccc(Cl)c([N+](=O)[O-])c1 (configuration not stated)
 : x | -13.7%
C=CCSc1nc(NC)c2sccc2n1
 : 14.9% | -0.5%
CN1C[C@H](C(=O)N[C@]2(C)O[C@]3(O)[C@H]4CCCN4C(=O)[C@H](Cc4ccccc4)N3C2=O)C[C@H]2c3cccc4[nH]cc(c34)C[C@@H]21
 : -5.0%[21.6 µM] | x
COc1cc(C(=O)Oc2cc(N)n(S(=O)(=O)c3ccccc3)n2)cc(OC)c1OC
 : -14.6% | -17.8%
COc1ccc(CNC(=O)CSc2nc(-c3ccc(OC)c(OC)c3)cc(C(F)(F)F)n2)cc1
 : x | 2.2%
Cc1[nH]c2ccccc2c1C(=O)CSc1nc2ccccc2[nH]1
 : 3.4% | 2.9%
CC(C)c1ccc(OCC(=O)NC(=S)Nc2ccc3c4c(cccc24)CC3)cc1
 : 1.3% | -13.8%
CN1CCN(c2ccc([N+](=O)[O-])c(-n3nc(-c4ccccc4)c4ccccc4c3=O)c2)CC1
 : -18.5% | 4.9%
CCC/C=N/NC(=O)CNC(=O)c1ccccc1Cl
 : 4.5% | -3.5%
CCOc1cc(-c2nccc3cc(OC)c(OC)cc23)cc(OCC)c1OCC
 : -5.8% | 10.3%

Two records drawn at random from those above, as already listed:
Order of values: N370S GC | FEN1 inhibitor
Nc1cc(=O)n(Cc2ccccc2)c(=O)n1-c1ccc(Cl)cc1
 : 0.5% | -9.8%
CCC/C=N/NC(=O)CNC(=O)c1ccccc1Cl
 : 4.5% | -3.5%

Next section.
Order of values: N370S GC | FEN1 inhibitor
CC(C)C(=O)NC(C)C(c1cccs1)N1CCOCC1 (configuration not stated)
 : -0.9% | -1.2%
COc1ccccc1N1CCN(C(=O)CN(c2ccccc2OC)S(=O)(=O)c2ccccc2)CC1
 : -1.9% | -1.2%
Fc1cccc(CN2CCN(Cc3nc(-c4cnccn4)no3)CC2)c1
 : 6.1% | 1.3%
COc1ccc(C(=O)/C=C/N2CCCCC2)cc1OC
 : -0.9% | -2.6%
CC(NC(=O)c1ccc(Cl)cc1)c1nnc(SCc2ccc([N+](=O)[O-])cc2)n1C (configuration not stated)
 : 4.8% | -16.4%
CCOC(=O)c1ccc(NC(=O)CCc2nc(-c3ccc(Cl)cc3)no2)cc1
 : -1.8% | -4.8%
COc1cc(C(O)P(=O)(OC2CCCCC2)c2ccc(N(C)C)cc2)cc(OC)c1OC (configuration not stated)
 : 10.5% | 2.6%
O=C(CN(C(=O)c1csnn1)c1ccc(F)cc1)NCc1ccc(F)cc1
 : 23.4% | -13.4%
COc1cc(NS(=O)(=O)c2c(C(=O)N3CCCCC3)c(C)n(C)c2C)cc(OC)c1OC
 : x | 0.4%
Cc1ccc(NC(=O)Cc2nnc(N)s2)cc1
 : 1.4% | -10.4%
NC(=O)c1ccsc1NC(=O)CSc1ncnc2sccc12
 : x | -1.1%
C=C1C[C@]23C[C@@]1(O)CC[C@H]2[C@@]12C=C[C@H](O)[C@@](C)(C(=O)O1)[C@H]2[C@@H]3C(=O)O
 : -0.6%&-2.2% | 21.7%&-0.6%
CCC(=O)Nc1ccc(Cl)c(-c2nc3ccccc3[nH]2)c1
 : x | 16.5%
CCOc1cccc(C2c3[nH]c4ccccc4c3CCN2C(=O)Cc2cccc(OCC)c2OCC)c1 (configuration not stated)
 : x | 12.5%
NC(=O)c1c(Nc2nc3c(F)cccc3s2)sc2c1CCCC2
 : 19.6% | -0.2%

An excerpt from above in order of length of the SMILES, falling.
Order of values: N370S GC | FEN1 inhibitor
CN1C[C@H](C(=O)N[C@]2(C)O[C@]3(O)[C@H]4CCCN4C(=O)[C@H](Cc4ccccc4)N3C2=O)C[C@H]2c3cccc4[nH]cc(c34)C[C@@H]21
 : -5.0%[21.6 µM] | x
C=C1C[C@]23C[C@@]1(O)CC[C@H]2[C@@]12C=C[C@H](O)[C@@](C)(C(=O)O1)[C@H]2[C@@H]3C(=O)O
 : -0.6%&-2.2% | 21.7%&-0.6%
O=C(NNC(=O)c1ccc(SCC2CCCO2)c([N+](=O)[O-])c1)c1ccc(Cl)c([N+](=O)[O-])c1 (configuration not stated)
 : x | -13.7%
CN1CCN(c2ccc([N+](=O)[O-])c(-n3nc(-c4ccccc4)c4ccccc4c3=O)c2)CC1
 : -18.5% | 4.9%
COc1ccc(CNC(=O)CSc2nc(-c3ccc(OC)c(OC)c3)cc(C(F)(F)F)n2)cc1
 : x | 2.2%
COc1cc(NS(=O)(=O)c2c(C(=O)N3CCCCC3)c(C)n(C)c2C)cc(OC)c1OC
 : x | 0.4%
CC(NC(=O)c1ccc(Cl)cc1)c1nnc(SCc2ccc([N+](=O)[O-])cc2)n1C (configuration not stated)
 : 4.8% | -16.4%
COc1cc(C(O)P(=O)(OC2CCCCC2)c2ccc(N(C)C)cc2)cc(OC)c1OC (configuration not stated)
 : 10.5% | 2.6%
CC(C)c1ccc(OCC(=O)NC(=S)Nc2ccc3c4c(cccc24)CC3)cc1
 : 1.3% | -13.8%
CCOC(=O)c1ccc(NC(=O)CCc2nc(-c3ccc(Cl)cc3)no2)cc1
 : -1.8% | -4.8%
O=C(CN(C(=O)c1csnn1)c1ccc(F)cc1)NCc1ccc(F)cc1
 : 23.4% | -13.4%
CCOc1cc(-c2nccc3cc(OC)c(OC)cc23)cc(OCC)c1OCC
 : -5.8% | 10.3%
Nc1cc(=O)n(Cc2ccccc2)c(=O)n1-c1ccc(Cl)cc1
 : 0.5% | -9.8%
Cc1[nH]c2ccccc2c1C(=O)CSc1nc2ccccc2[nH]1
 : 3.4% | 2.9%
CCC(=O)Nc1ccc(Cl)c(-c2nc3ccccc3[nH]2)c1
 : x | 16.5%
NC(=O)c1c(Nc2nc3c(F)cccc3s2)sc2c1CCCC2
 : 19.6% | -0.2%
NC(=O)c1ccsc1NC(=O)CSc1ncnc2sccc12
 : x | -1.1%
CC(C)C(=O)NC(C)C(c1cccs1)N1CCOCC1 (configuration not stated)
 : -0.9% | -1.2%
COc1ccc(C(=O)/C=C/N2CCCCC2)cc1OC
 : -0.9% | -2.6%
CCC/C=N/NC(=O)CNC(=O)c1ccccc1Cl
 : 4.5% | -3.5%
Cc1ccc(NC(=O)Cc2nnc(N)s2)cc1
 : 1.4% | -10.4%
C=CCSc1nc(NC)c2sccc2n1
 : 14.9% | -0.5%

(list continues)
Order of values: N370S GC | FEN1 inhibitor
CCOC(=O)c1sc(=S)n(-c2ccc(Cl)cc2)c1C
 : -6.4% | -17.6%
O=C(COC(=O)c1cccc(S(=O)(=O)N2CCOCC2)c1)Nc1ncc(C(F)(F)F)cc1Cl
 : u | -7.9%
COc1ccc(Cc2nnc(-c3ccc(F)cc3)o2)cc1OC
 : 6.1% | 0.5%
COCC(C)n1c(SCc2nc3ccccc3c(=O)[nH]2)nc2ccccc2c1=O (configuration not stated)
 : 9.0% | -0.3%
CCCn1c(SCC(=O)c2c[nH]c3ccccc23)nnc1-c1ccncc1
 : -11.8% | -1.1%
Cc1occc1C(=O)NNC(=O)c1ccccc1F
 : -3.0% | 16.2%
N/C(=N\OC(=O)Cc1ccccc1)c1ccccn1
 : 7.7% | 0.6%
Fc1ccc(NC(=S)Nc2cccnc2)cc1
 : -16.6% | 0.1%
CCOc1ccc(S(=O)(=O)Nc2ccn(C)n2)cc1
 : x | -13.6%
CCOC(=O)c1c(C)n(C)c2ccc(O)c(CN3CCCCC3)c12
 : 5.8% | -14.5%
CC1CCCN(C(=O)C2c3ccccc3C(=O)N3CCc4ccccc4C23)C1 (configuration not stated)
 : -4.4% | 2.0%
CC(C)(C)C(=O)N(Cc1nc2ccccc2c(=O)[nH]1)Cc1cccs1
 : 30.0% | -14.8%
Cc1cc(C(=O)OCC(=O)N(CC(C)C)c2c(N)n(Cc3ccccc3)c(=O)[nH]c2=O)c(C)o1
 : -9.6% | 10.7%
COc1cccc(NC(=O)c2sc3nc(C)c(C(=O)Nc4ccc(C)cc4C)c(-c4sccc4C)c3c2N)c1
 : x | -19.3%
CC(=O)c1cc(CN2CCN(C3CCCCC3)C(CCO)C2)cs1 (configuration not stated)
 : -5.6% | 12.6%
COc1cccc(NC(=S)NC(=O)Cc2ccc(Cl)cc2)c1
 : -8.6% | 9.5%
Cn1c(=O)c2c(nc(CN3CCc4ccccc4C3)n2Cc2cccc(Cl)c2)n(C)c1=O
 : 1.2% | 2.1%
Cc1noc(-c2ccc(-c3noc(-c4ccc(Cl)cc4)n3)cc2)n1
 : x | 3.6%
CC(C)CCNS(=O)(=O)c1ccc(-c2ccc(S(=O)(=O)NCCC(C)C)cc2)cc1
 : -11.2% | 9.4%
C/C(=N\N1CCN(c2ccc(Cl)cc2)CC1)c1ccco1
 : -0.9% | 5.1%
CC(C)(C)c1ccc(CN(Cc2ccccc2)C(c2ccccn2)c2nnnn2C(C)(C)C)cc1 (configuration not stated)
 : 3.1% | -19.4%
CCSc1c(C(=O)NC)ccc2c1C(=O)c1ccccc1C2=O
 : -20.7% | -16.3%
COc1ccc(NC(=S)NNC(=O)OC(C)(C)C)cc1OC
 : 0.6% | -3.4%
Cc1ccc(C(=O)Nc2cccnc2)cc1NC(=O)c1ccco1
 : -1.5% | -13.9%
O=c1c2cnn(-c3ccccc3Cl)c2ncn1Cc1cccnc1
 : 22.0% | 2.7%
COc1ccc(CCNc2nnc(Sc3nnnn3-c3ccccc3)s2)cc1OC
 : -21.3% | -0.5%
O=C(CN1C(=O)c2ccccc2S1(=O)=O)NCCC1=CCCCC1
 : 2.6% | 8.1%
CC1=NNC(=O)C1Cc1ccc(F)cc1 (configuration not stated)
 : -19.5% | 5.2%
CC(=O)Nc1ccc(NS(=O)(=O)c2cc(Br)cc3c2N(C(=O)C2CC2)CC3)cc1
 : x | -11.4%
